PINK1 modulator: modulators of PINK1 expression | PINK1 immunofluorescence, high-content cytometry, 24 h | Potency, µM (titrated, usually from 76.6 µM), inactives show top-dose activation (PINK1 increase), hits mostly activators | 410,000 tested, 0.2% active; active = well fitted activation curve with a large enough effect; inconclusive = small, poorly fitted or top-dose-only effect; inactive = flat fitted curve, though single readings scatter; cell line not stated here;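 further: potency means the concentration at half of the fitted maximal effect; % of control where 0% means no effect; nearly all actives have a fitted effect of over 65% in size; a mitochondrial uncoupler was the plate control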
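Measures PINK1 amount and localization on or inside mitochondria by immunofluorescence. Stable cells get compounds at 5 concentrations for 24 hours before fixation and staining; CCCP controls included.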
D2 agonist: human D2 receptor agonism in beta-arrestin assay. P14416. DiscoveRx PathHunter D2 beta-arrestin, luminescence, 90 min; 100% = 57 uM dopamine signal. activation, % (concentration not given with the values). 360,000 tested, 0.084% active; in the data active = activation above about 40%; inconclusive = about 15% to 40%; inactive = below about 15%; further: compound concentration not given in the record; the text of the record calls up to 30% inactive
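Agonist mode: compounds alone added to overnight-plated D2 PathHunter cells for 90 min at 37 C, with 57 uM final dopamine (EC100) defining full response. Beta-arrestin recruitment detected by chemiluminescent reagent, read after 1 h at ambient temperature.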
TRPML1 agonist: agonists of human TRPML1 channel. Q9GZU1. activation, % (test concentration not listed). TRPML1-expressing cells, Ca2+ dye fluorescence, FDSS; host cell line not named in the record; reference of the full effect not given here. 410,000 tested, 0.12% active; in the data active = activation above about 50%; inconclusive = about 30% to 50%; inactive = below about 30%; further: 0% is about no effect; the text of the record puts the active cut at 80%
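Tetracycline-induced TRPML1-DL cells are seeded and incubated overnight before loading with a no-wash Ca2+ dye and quencher. Agonist activity is taken from the 110 s fluorescence read following compound pin-transfer on an FDSS, before EC80 54-4 challenge.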
Six1-Eya2 inh: inhibitors of human Six1/Eya2 interaction; Q15475+O00167; AlphaScreen GST-Six1/His-Eya2 binding, biochemical; stronger effect = lower value; control for the full effect not named in the record; activity change, % (test concentration not listed); 360,000 tested, 0.56% active; AID 651725; in the data active = activity change below about -65%; inconclusive = about -30% to -65%; inactive = above about -30%; further: on the % scale 0 is the no-effect control and ±100 the full control effect; compound concentration not given in the record
Target sequence (O00167 whole entry, looked up): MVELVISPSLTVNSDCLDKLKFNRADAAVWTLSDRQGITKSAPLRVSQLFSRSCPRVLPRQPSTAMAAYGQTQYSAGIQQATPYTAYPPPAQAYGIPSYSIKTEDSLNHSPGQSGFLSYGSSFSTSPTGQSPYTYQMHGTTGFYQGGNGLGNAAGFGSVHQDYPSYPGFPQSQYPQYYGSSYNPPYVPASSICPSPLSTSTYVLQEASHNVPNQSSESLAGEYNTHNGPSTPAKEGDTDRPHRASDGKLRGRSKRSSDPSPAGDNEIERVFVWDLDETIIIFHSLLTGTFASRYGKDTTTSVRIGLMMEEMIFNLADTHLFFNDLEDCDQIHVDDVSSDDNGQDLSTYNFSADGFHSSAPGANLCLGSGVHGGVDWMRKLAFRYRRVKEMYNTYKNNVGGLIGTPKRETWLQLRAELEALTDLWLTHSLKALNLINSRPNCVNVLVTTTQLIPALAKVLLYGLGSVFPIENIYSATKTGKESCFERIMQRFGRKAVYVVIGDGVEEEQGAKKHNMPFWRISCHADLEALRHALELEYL
Target sequence (Q15475 whole entry, looked up): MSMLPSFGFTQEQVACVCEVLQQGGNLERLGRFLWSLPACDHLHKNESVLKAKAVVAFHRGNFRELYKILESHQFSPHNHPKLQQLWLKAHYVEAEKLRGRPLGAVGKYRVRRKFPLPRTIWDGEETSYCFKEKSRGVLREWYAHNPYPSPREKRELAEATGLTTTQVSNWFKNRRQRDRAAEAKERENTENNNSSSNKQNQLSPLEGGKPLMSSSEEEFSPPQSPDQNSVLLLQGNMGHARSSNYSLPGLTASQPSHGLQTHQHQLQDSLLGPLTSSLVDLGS
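Six1/Eya2 binding was read as AlphaScreen signal after compounds were pinned into GST-Six1 plus His-tagged Eya2 (5X stock 250/500 nM) in pH 8.0 Tris/NaCl/TCEP buffer, beads added, then incubated 1 h, 37 C, dark.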
CtBP-E1A blk: CtBP/E1A binding inhibition; AlphaScreen GST-E1A/His-CtBP binding, 1536-well; stronger effect = lower value; control for the full effect not named in the record; activity change, % (concentration not given with the values); 340,000 tested, 0.49% active; in the data active means activity change below about -65%; inconclusive means about -30% to -65%; inactive means above about -30%; further: on the % scale 0 is the no-effect control and ±100 the full control effect
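Protein mix (5X: 125 nM each GST-E1A, His-CtBP) was incubated with pinned compound 2 h at 37 deg C in dark, in 50 mM Tris pH 8.0 buffer with 300 mM NaCl. Glutathione donor and nickel acceptor beads followed; AlphaScreen signal read after 1 h.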
TRPML1 inh: inhibitors of human TRPML1 channel | Q9GZU1 | TRPML1-inducible cells, Ca2+ dye fluorescence, FDSS; stronger effect = lower value; inhibition of EC80 agonist-evoked calcium signal | activity change, negative = inhibition, % (test concentration not listed) | 390,000 tested, 0.02% active; in the data active means activity change below about -50%; inconclusive means about -30% to -50%; inactive means above about -30%;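 further: stimulus is agonist 54-4 at its EC80 concentration; on the % scale 0 is the no-effect control and ±100 the full control effect; compound concentration not given in the record; the text of the record puts the active cut at -80%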
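Calcium fluorescence in TRPML1-DL cells induced overnight with Tet: a 110 s read after compound pin addition, then a 110 s antagonist read after challenge with 54-4 at 4 uM final (EC80).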
Active calls of the source: *; ? = inconclusive; nt = no result given; [ ] = another dose, or the depositor's remark. The list is partial; count on the stated rates, not on these rows.

SMILES | PINK1 modulator | D2 agonist | TRPML1 agonist | Six1-Eya2 inh | CtBP-E1A blk | TRPML1 inh
Cc1ccc(-n2nc(C)cc2NC(=O)COc2cc(C)cc3oc(=O)c4c(c23)CCC4)cc1 | 0.4%[38.3 µM] | 0.8 | 0.7 | -7 | -2 | 1
O=C(C1CCN(c2nc3ccc(Br)cc3s2)CC1)N1CCC2(CC1)OCCO2 | 0.1% | 0.1 | 0.3 | 6 | -4 | -11
Cc1ccccc1-n1c(/C=C/c2ccccc2F)nc2ccccc2c1=O | 0.5% | nt | 1.9 | nt | nt | 9
COc1cccc2cc(-c3cc(=O)oc4ccc(OC(=O)N(C)C)cc34)oc12 | 5.5% | -1.2 | -0.6 | 3 | 1 | 2
COC(=O)C1=C(c2ccccc2)C[C@@H]2CC[C@H]1N2C(=O)N1CCCC1 | 0.8% | -0.9 | 0.8 | 3 | 4 | -9
Cc1cc(C)cc(N2C(=O)NC(=O)/C(=C\c3cccn3-c3ccccc3)C2=O)c1 | -0.6% | -3.0 | -0.1 | 9 | 6 | -2
Cc1cccc(OP(N)(=O)Oc2cccc(C)c2C)c1C | 1.6% | -2.7 | -1.4 | 7 | nt | -5
CCOc1cc(C=C2C(=O)NC(=O)NC2=O)ccc1OCC(=O)N1CCOCC1 | 3.1% | -5.5 | -0.6 | 3 | 20 | 7
Cc1nc2ccsc2c(=O)n1-c1ccccc1Cl | 1.3% | -1.6 | 1.8 | 7 | 6 | -19
O=C(NC1CCCCC1)N1Cc2cc(-c3cccc(F)c3)ccc2-n2nncc2C1 | 4.7% | -7.7 | -0.3 | 2 | -2 | nt
COC(=O)[C@@H]1N=C(c2ccc(OC)cc2)O[C@]12C(=O)N(C)c1ccc(Cl)cc12 | 3.4% | nt | 1.3 | 4 | -25 | nt
O=c1c2ccccc2nc(-c2ccccc2Cl)n1-c1cccc(O)c1 | 0.2% | -1.9 | 1.1 | -2 | -1 | 9
COc1ccc(CCNCc2ccc3c(c2)n(C)c(=O)n3C)cc1 | -0.6% | nt | -0.4 | nt | nt | 9
CN1C(=O)C(=Cc2ccccc2Oc2ccc(Cl)cc2)C(=O)N(C)C1=O | 5.3% | -4.3 | -0.1 | 3 | 6 | -1
O=C(NCNC(=O)NC1C(=O)NC(=O)N1CO)NC1C(=O)NC(=O)N1CO (stereo not drawn) | 1.2% | -0.6 | -0.1 | 0 | 26 | 0
COCCNC(=O)Cn1cc(C(=O)c2ccccc2F)c2ccccc21 | 0.4% | 1.6 | 0.6 | 1 | 5 | 1
COc1cc2c(C(=O)O)c(C)n(C)c2cc1Br | 2.0% | 1.2 | 0.2 | -2 | 2 | -16
O=C(Nc1ccc(Cl)c(Cl)c1)O/N=C/c1ccncc1 | ? | -4.7 | -0.5 | 3 | -5 | -5
COc1ccc2[nH]c(C)c(CCNCc3cccnc3)c2c1 | 0.0% | 9.0 | 13 | -1 | -13 | 15
O=C1NC2C(=CC(O)C(O)C2O)c2cc3c(c(O)c21)OCO3 (stereo not drawn) | -1.5% | -5.4 | -0.3 | -3 | 3 | -10

Six entries from above, with tabs:
SMILES	PINK1 modulator	D2 agonist	TRPML1 agonist	Six1-Eya2 inh	CtBP-E1A blk	TRPML1 inh
O=C(Nc1ccc(Cl)c(Cl)c1)O/N=C/c1ccncc1	?	-4.7	-0.5	3	-5	-5
CCOc1cc(C=C2C(=O)NC(=O)NC2=O)ccc1OCC(=O)N1CCOCC1	3.1%	-5.5	-0.6	3	20	7
COc1ccc(CCNCc2ccc3c(c2)n(C)c(=O)n3C)cc1	-0.6%	nt	-0.4	nt	nt	9
O=C(NC1CCCCC1)N1Cc2cc(-c3cccc(F)c3)ccc2-n2nncc2C1	4.7%	-7.7	-0.3	2	-2	nt
COc1cc2c(C(=O)O)c(C)n(C)c2cc1Br	2.0%	1.2	0.2	-2	2	-16
CN1C(=O)C(=Cc2ccccc2Oc2ccc(Cl)cc2)C(=O)N(C)C1=O	5.3%	-4.3	-0.1	3	6	-1

Later entries.
SMILES | PINK1 modulator | D2 agonist | TRPML1 agonist | Six1-Eya2 inh | CtBP-E1A blk | TRPML1 inh
O=C1NCN(c2ccccc2)C12CCNCC2 | ? | -2.1 | -0.4 | -9 | 11 | -4
Cc1ccc(-n2c(C)nc3ccccc3c2=O)cc1C | -0.7% | -4.5 | -0.1 | 7 | nt | -4
C=CCn1c(O)c(C(CC)=Nc2cccc(C(F)(F)F)c2)c(=O)[nH]c1=O | 5.2% | -0.5 | -0.2 | 3 | 10 | -3
CC1([N+](=O)[O-])COP(=O)(NC2CC2)OC1 (stereo not drawn) | 2.7% | -0.5 | 0.7 | 7 | -4 | 4
Cc1ccc2c(c1)C1CN(C)CCC1N2C(=O)/C=C/c1ccc2c(c1)OCO2 (stereo not drawn) | -1.4% | nt | -0.3 | -4 | -4 | 9
Cc1cc(C=C2C(=O)NC(=O)NC2=O)c(C)n1-c1ccncc1 | 0.9% | 0.2 | -0.2 | 0 | 15 | 18
Fc1ccccc1CNCCc1c[nH]c2ccccc12 | -0.1% | -0.6 | -0.3 | -14 | -6 | 7
CC(=NCc1cccnc1)c1c(O)n(-c2ccc(Cl)cc2)c(=O)[nH]c1=O | -2.3% | -0.9 | 0.2 | 2 | 0 | -14
CC1(C)CN=C(Nc2ccc(F)c(Cl)c2)S1 | 3.5% | -9.0 | 2.1 | -3 | nt | -12
COc1ccc(N2C(=O)/C(=C/c3ccc(C)o3)C(=O)NC2=S)cc1 | -1.8% | 1.1 | 1.3 | -20 | -13 | 1
COc1ccc(CCn2c(O)c(C=Nc3ccc(F)cc3)c(=O)[nH]c2=O)cc1OC | 8.9% | -5.0 | 1.3 | -5 | nt | -7
CCCN1CC(C)C(OC(C)=O)(c2ccccc2)CC1C (stereo not drawn) | -0.9% | 1.2 | -0.1 | -1 | 3 | 0
C[C@@]1([C@@H](NP(=O)(c2ccccc2)c2ccccc2)c2ccccc2)C[C@H]1CCO | -1.5% | 0.6 | -1.1 | -5 | 2 | -6
C[C@]12CCC3C(CC[C@H]4C[C@@H](O)CC[C@]34C)C1C[C@@H](Br)[C@@H]2O (stereo partly drawn) | -1.9% | -2.1 | 0.2 | 0 | -2 | -19
Cc1ccc(-n2c(=O)[nH]c3ccccc3c2=O)cc1[N+](=O)[O-] | 2.1% | nt | 0.3 | 17 | -24 | nt
Cc1ccc(N2C(=O)NC(=O)/C(=C\c3ccoc3)C2=O)cc1 | 2.9% | -1.1 | 0.9 | -25 | -4 | 7
N=C1c2ccccc2CN1c1ncccn1 | 2.3% | -3.0 | 0.5 | -14 | 2 | 10
COC(=O)C1=C(c2cccc(OC)c2OC)C[C@@H]2CC[C@H]1N2C(=O)N1CCC(C)CC1 | 1.4% | -3.7 | -0.2 | 0 | 6 | -7
Cc1ccc(NC(=O)N2CCN(c3cc(-c4noc(C)n4)ccc3C)CC2)c(F)c1 | ? | nt | 3.3 | nt | nt | -16
CC(=NCCN1CCCCC1)c1c(O)n(Cc2ccccc2)c(=O)[nH]c1=O | ? | 1.3 | -0.4 | -1 | 4 | -8
Cc1occc1C(=O)N1CCC2(CC1)OCCO2 | 3.0%[38.3 µM] | 0.3 | 1.1 | 6 | 7 | -10
Cc1ccc(C2SCC(=O)Nc3c2c(=O)[nH]n3C2CCOC(C)(C)C2)cc1 (stereo not drawn) | 6.1% | -2.6 | 1.2 | 0 | 7 | 2
CCOc1ccc2c(c1)c(C(C)=O)c(C)n2Cc1ccco1 | 2.2% | -2.0 | 1.0 | -4 | -6 | 19
Cc1ccc2ccccc2c1NC(=O)CNC1CCCCC1 | -1.8% | -4.4 | -0.2 | -2 | 4 | 23
COc1ccc(N=C2SCCCN2C)cc1 | 1.6% | -2.7 | -0.4 | 4 | 2 | 4
COc1ccc(OC)c(CN2CCN(C(=O)COc3cccc(C)c3)CC2)c1 | -0.5% | -4.8 | 0.7 | -10 | -1 | -16
Cc1cccc(N=Nc2ccc(N(C)C)cc2)c1 | 7.7% | 8.0 | -0.7 | -72* | ? | 2
O=C(Nc1ccc2c(c1)OCO2)c1cn(Cc2ccc(F)cc2)nn1 | 0.6% | -2.6 | -0.9 | -10 | -9 | -1
O=C(O)Cn1cc(/C=C2\C(=O)NC(=O)N(c3ccc(Cl)cc3)C2=O)c2ccccc21 | 0.3% | 4.6 | 0.6 | -2 | nt | 17
C[C@@H]1CN([C@@H](C)CO)C(=O)CCCn2nncc2CO[C@H]1CN(C)C(=O)Oc1ccccc1 | 1.2% | -11 | -0.2 | 0 | -5 | -7
COc1ccc(S(=O)(=O)N2Cc3ccccc3-n3nncc3C2)cc1 | -0.1% | -6.9 | -0.6 | 6 | 7 | 2
O=C(C1CCN(S(=O)(=O)N2CCOCC2)CC1)N1CCC2(CC1)OCCO2 | -3.5%[38.3 µM] | -2.6 | -0.4 | 26 | 57 | 9
COC(=O)C1=C(c2cc3ccccc3s2)C[C@@H]2CC[C@H]1N2C(=O)NCC1CC1 | 0.6% | -1.3 | -0.4 | -3 | -2 | 14
CCCCCn1c(=O)c(C(=O)Nc2ccccc2)c(O)c2ccccc21 | 1.4% | -2.8 | nt | -2 | nt | nt
CCC(C(=O)N1CCC2(CC1)OCCO2)n1c2ccccc2c2nc(=O)cc(C)n21 (stereo not drawn) | -0.7% | 3.6 | 0.4 | 6 | -19 | -11
Nc1ccc([N+](=O)[O-])cc1 | -1.1% | -3.4 | -0.1 | 2 | 2 | 2
C#CC[N+]1(C)[C@@H]2CC[C@H]1CC(OC(=O)C(CO)c1ccccc1)C2 (stereo partly drawn) | 0.9% | -5.5 | 0.7 | 3 | nt | -2
CCCCn1nnnc1C(C1CC1)N1CCC(n2c(=O)[nH]c3ccccc32)CC1 (stereo not drawn) | 0.2% | 12 | -0.6 | 5 | -1 | nt
Oc1c(Cl)cccc1Cc1cc(Cl)cc(Cl)c1O | ? | 0.2 | 0.6 | -28 | ? | 12
CCCCCSc1cc(O)c(C(CNC)C(C)C)cc1OC (stereo not drawn) | 3.2% | 2.8 | 1.3 | -21 | 9 | 1
O=C(N/N=C/c1c(O)n(Cc2ccc(F)cc2)c(=S)[nH]c1=O)c1ccncc1 | -0.4% | -1.4 | 2.5 | ? | -67* | 56
Cc1cccc(NC(=S)N2CC3CC(C2)c2cccc(=O)n2C3)c1C (stereo not drawn) | -1.8% | -1.3 | -0.6 | -1 | 0 | 4
C[C@]12CC[C@@H](O)CC1=CCC1C2CC[C@@]2(C)C1C[C@@H](F)[C@@H]2O (stereo partly drawn) | 1.9% | -2.2 | 0.6 | 6 | -1 | -15
O=[N+]([O-])c1cccc(CN2CC=C(c3ccc(F)cc3)CC2)c1 | 1.6% | -3.9 | 0.1 | -10 | -6 | 27
COP(=O)(NS(=O)(=O)c1ccccc1)OC | -1.6% | 2.0 | -0.2 | 12 | nt | -2
c1ccc(C2NCc3ccccc3-n3cccc32)cc1 (stereo not drawn) | 11% | -4.0 | -0.3 | -22 | ? | 16

Compound activity as filed in PubChem BioAssay.
